GIV-Gai inh – blocks GIV peptide binding to rat Galpha-i3. AID 1224905. percent of control (FP), % (no concentration beside the values). Galpha-i3/FITC-GIV peptide fluorescence polarization, 90 min; active compounds read low; scaled: aluminum fluoride 0%, vehicle 100%. hit rate 0.42% among 210,000. P08753;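 active = replicate mean at 85% of control or lower, very high polarization wells dropped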;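 also: wells of about 15 µL received 100 nL stock; the first replicate is given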
Target sequence (P08753 whole entry, looked up): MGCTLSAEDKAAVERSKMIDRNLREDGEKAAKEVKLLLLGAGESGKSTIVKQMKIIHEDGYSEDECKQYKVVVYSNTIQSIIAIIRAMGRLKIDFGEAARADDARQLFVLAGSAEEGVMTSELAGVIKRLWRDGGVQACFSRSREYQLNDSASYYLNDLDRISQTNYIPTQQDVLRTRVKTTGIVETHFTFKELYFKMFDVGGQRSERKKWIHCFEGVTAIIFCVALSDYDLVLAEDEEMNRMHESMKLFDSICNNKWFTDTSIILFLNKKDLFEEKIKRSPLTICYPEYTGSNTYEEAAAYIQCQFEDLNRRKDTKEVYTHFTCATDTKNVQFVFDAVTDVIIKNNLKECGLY
An asterisk follows results filed as active.

SMILES | GIV-Gai inh
CC1CCCN(c2nc(-c3ccc([N+](=O)[O-])cc3)nc3ccccc23)C1 (centres undefined) | 99.8
COc1cc(C2C(C#N)=C(N)Oc3n[nH]c(-c4ccc(Br)cc4)c32)cc(OC)c1O (centres undefined) | 104.5
Cc1cc(Cl)ccc1NC(=O)C1CCCN(C(=O)c2ccccc2F)C1 (centres undefined) | 101.5
Cc1c(Br)cc2nc(-c3ccc(F)cc3)c(-c3ccc(F)cc3)nc2c1C | 102.6
COCCCNC(=O)c1cc(S(=O)(=O)N2CC(C)CC(C)C2)ccc1Sc1ccc(Br)cc1 (centres undefined) | 104.0
C=CCOC(=O)C1=C(C)NC(SCC(=O)Nc2c(C)cc(C)cc2C)=C(C#N)C1c1cccs1 (centres undefined) | 106.8
COc1ccc(NS(=O)(=O)c2c(C)nn(-c3ccc(-c4ccc(C)c(C)c4)nn3)c2C)cc1OC | 105.5
Cc1cc(C2CCCN2C(=O)NC2CCCCC2)on1 (centres undefined) | 101.6
O=C1c2ccccc2C(=O)N1CC1c2ccccc2CCN1S(=O)(=O)c1cc(Cl)sc1Cl (centres undefined) | 100.9
COc1ccc(NC(=O)C2CCN(c3nc4ccccc4nc3OC)CC2)c(OC)c1 | 100.4
CC1(C)C(=O)NCCN1C(=O)C1CCC1 | 98.8
CC(NC(=O)CSc1nc2ccccc2c(=O)[nH]1)c1nc2ccccc2[nH]1 (centres undefined) | 107.9
CCC(C)NC(=O)c1cccc(-n2c(=S)[nH]c3cc(Cl)ccc3c2=O)c1 (centres undefined) | 112.0
Cc1ccc(-c2nc(CN3CCCC(C(=O)Nc4ccc(F)cc4)C3)no2)cc1 (centres undefined) | 100.8
O=C(CSc1nc2[nH]ncc2c(=O)n1-c1cccc(C(F)(F)F)c1)Nc1ccc2c(c1)OCCO2 | 111.4
Cc1ccc(CNS(=O)(=O)c2ccc(-c3cnc(C4CCC4)o3)s2)o1 | 106.3
CCSc1sc(CC)cc1C1C(C(=O)Nc2cccc(C)n2)=C(C)NC2=C1C(=O)CC(c1ccccc1)C2 (centres undefined) | 97.6
O=S(=O)(NCc1nc2cccnc2n1C1CCCC1)c1ccc(F)c(Cl)c1 | 100.8
c1cn(-c2ccc(-c3noc(-c4ccc5c(c4)OCO5)n3)cn2)cn1 | 100.8
CCC1=NN(C(=O)c2ccc(C)cc2)C(O)(c2ccc(Br)cc2)C1 (centres undefined) | 108.3
COc1ccc(-c2cc3n(n2)CCCN(Cc2ccsc2)C3)cc1OC | 96.9
O=C(CN1CCN(C(=O)Nc2ccc(Cl)cc2)CC1=O)NCc1ccc(F)cc1 | 102.8
CC1(C)CC(=O)C2=C(C1)c1c(ccc3ccccc13)NC2c1ccc(-c2ccc3c(c2)COC3=O)o1 (centres undefined) | 107.6
CCOC(=O)c1[nH]c(C)c(CN(Cc2ccc(OC)cc2)C(=O)Nc2cc(OC)ccc2OC)c1C | 100.5
Cc1cc(-c2ccc(S(=O)(=O)N3CCN(c4ccccn4)CC3)c(C)c2)on1 | 104.1
Cc1ccc(-c2nc(CSCC(=O)NCC3CC3)no2)cc1 | 101.9
Clc1ccccc1C1CC(c2ccco2)=Nc2ccccc2S1 (centres undefined) | 104.3
O=c1c(S(=O)(=O)N2CCCC2)cccn1Cc1ccccc1 | 104.6
Cc1cc(C)c(C2=NON3N(C(=O)C(C)(C)C)c4ccccc4N23)c(C)c1 | 103.9
CCC(CC)C(=O)N1c2ccc(C)cc2-c2c(ssc2=S)C1(C)C | 104.1
COc1ccc(-c2cc(C(F)(F)F)n3nc(C(=O)N4CCCCCC4)cc3n2)cc1OC | 120.1
CCOc1ccccc1NC(=O)CCSc1nc2n[nH]c(C)c2c(=N)n1-c1cccc(Cl)c1 | 114.0
CC(C)Cc1csc(-c2csc(S(=O)(=O)NCc3ccccc3F)c2)n1 | 97.3
CC(C)NC(=O)c1nsc(C(=O)NC2CC2)c1N | 101.4
CN1CCN(c2ccc([N+](=O)[O-])c(Sc3nc4ccccc4[nH]3)c2)CC1 | 97.4
COC(=O)C1=CN(Cc2ccc(Cl)cc2)C=C(C(=O)OC)C1c1cc(Br)c(OC)c(OC)c1 | 106.5
COc1cccc(N/C(SCc2ccc(C)cc2C)=C(/C#N)C(=O)NCc2cccs2)c1 | 107.1
COc1ccc(CNC(=O)c2ccc3cccc(O)c3n2)c(OC)c1 | 98.4
COc1ccc(OC)c(NC(=O)CSc2nc3n[nH]c(C)c3c(=N)n2-c2ccccc2Cl)c1 | 100.3
COC(=O)C1=C(C)N(C)C(=O)NC1c1cn(-c2ccccc2)nc1-c1ccc(Cl)cc1 (centres undefined) | 119.5
COc1ccc(Cl)cc1-n1c(=S)sc2c(=O)[nH]c(SCC(=O)N3CCCC3)nc21 | 112.9
COc1ccc(/C=C2/SC(=Nc3cccc(C)c3)NC2=O)c(OC)c1 | 96.5
Cc1ccc(-c2nc3cc(C)c(C)cc3nc2-c2ccc(C)cc2)cc1 | 113.1
Cc1ccc(CN2CCCC(c3nncn3Cc3ccccc3)C2)o1 (centres undefined) | 110.4
CCN1CCCc2cc(C(=O)NCc3cccs3)sc21 | 102.2
Cc1ccc(CN2C(=O)/C(=C3\SC(=S)N(C4CCS(=O)(=O)C4)C3=O)c3cc(Br)ccc32)cc1 (centres undefined) | 104.3
COc1ccc(C2NCCc3c2[nH]c2ccccc32)cc1CN1CCN(c2ccc([N+](=O)[O-])cc2)CC1 (centres undefined) | 110.1
Cc1ccc(NS(=O)(=O)c2cc(-c3cc(C(F)(F)F)on3)sc2C)c(C)c1 | 93.2
Cc1ccc(Nc2nc(Cl)nc(NCCN3CCOCC3)n2)cc1 | 105.8
c1cc(-c2noc(C3CC3)n2)cc(N2CCCC2)n1 | 98.7
Cc1c(CC(Cl)(Cl)Cl)c2c(n1-c1cccnc1)CCCC2=O | 100.2
C=CCN1C(=O)C(=O)/C(=C(\O)c2ccc(Br)cc2)C1c1ccc(OC)c(OC)c1 (centres undefined) | 119.4
Cc1ccc(-c2nnc(SCc3noc(CCC(=O)Nc4nccs4)n3)o2)cc1 | 104.5
CC(C)c1cc(C2CCCN2S(=O)(=O)c2ccccc2)on1 (centres undefined) | 106.4
COc1ccc(-n2ccc(=O)c(-c3nc(-c4ccccc4Br)no3)n2)cc1 | 98.3
CCOc1ccccc1CN1CCCC1c1c(C)noc1C (centres undefined) | 100.9
CCC(C)NC(=O)N1CCCN(C(C)=O)CC1 (centres undefined) | 101.4
CN1C(=O)C2CCC(N)CC2C1=O (centres undefined) | 105.0
CCOc1cc(C2C(C(=O)N3CCCCC3)=C(C)NC3=C2C(=O)CCC3)cc(Br)c1O (centres undefined) | 99.1
COc1ccc(-n2nnc(-c3nsc(Nc4ccc(OC)c(Cl)c4)n3)c2C)cc1 | 102.5

Given in CSV form: entries from further up.
Compound,GIV-Gai inh
COc1ccc(C2NCCc3c2[nH]c2ccccc32)cc1CN1CCN(c2ccc([N+](=O)[O-])cc2)CC1 (centres undefined),110.1
Cc1ccc(NS(=O)(=O)c2cc(-c3cc(C(F)(F)F)on3)sc2C)c(C)c1,93.2
Cc1ccc(Nc2nc(Cl)nc(NCCN3CCOCC3)n2)cc1,105.8
c1cc(-c2noc(C3CC3)n2)cc(N2CCCC2)n1,98.7
Cc1c(CC(Cl)(Cl)Cl)c2c(n1-c1cccnc1)CCCC2=O,100.2
C=CCN1C(=O)C(=O)/C(=C(\O)c2ccc(Br)cc2)C1c1ccc(OC)c(OC)c1 (centres undefined),119.4
Cc1ccc(-c2nnc(SCc3noc(CCC(=O)Nc4nccs4)n3)o2)cc1,104.5
CC(C)c1cc(C2CCCN2S(=O)(=O)c2ccccc2)on1 (centres undefined),106.4
COc1ccc(-n2ccc(=O)c(-c3nc(-c4ccccc4Br)no3)n2)cc1,98.3
CCOc1ccccc1CN1CCCC1c1c(C)noc1C (centres undefined),100.9
CCC(C)NC(=O)N1CCCN(C(C)=O)CC1 (centres undefined),101.4
CN1C(=O)C2CCC(N)CC2C1=O (centres undefined),105.0
CCOc1cc(C2C(C(=O)N3CCCCC3)=C(C)NC3=C2C(=O)CCC3)cc(Br)c1O (centres undefined),99.1
COc1ccc(-n2nnc(-c3nsc(Nc4ccc(OC)c(Cl)c4)n3)c2C)cc1,102.5

Remaining list, next part:
SMILES | GIV-Gai inh
C=CCN1N=C(c2ccccc2)SC(C)=C1c1ccc(Cl)cc1 | 103.6
COc1ccc(Cl)cc1-n1c(=S)sc2c(=O)[nH]c(SCC(=O)Nc3nccs3)nc21 | 113.5
C#CC(C)(O)CCC1=C(C)CCCC1(C)C (centres undefined) | 107.5
COc1cccc(-c2nc3sc4c(c3c(=O)n2CC(=O)Nc2ccc(F)c(Cl)c2)CCCC4)c1 | 103.9
COc1ccc(Cl)cc1N1C(=O)CSC1c1ccccc1[N+](=O)[O-] (centres undefined) | 102.1
CC1=CC(C)C2COC(c3ccccc3O)C1C2 (centres undefined) | 100.6
COc1ccc(CN(CCC2(c3ccccc3)CCOC(C)(C)C2)C(C)=O)cc1OC (centres undefined) | 115.0
O=S1(=O)N=CN(Cc2ccccc2F)c2ccccc21 | 103.2
CN1CCN(C(=O)c2ccccc2Br)c2ccccc21 | 103.0
COC(=O)Cc1nc(NCc2ccccc2OC)c2c3c(sc2n1)CCCC3 | 103.1
Cc1cccc(-c2noc(Cc3nc(-c4ccc5c(c4)OCO5)cs3)n2)c1 | 107.0
Clc1ccc(-c2[nH]c(-c3ccc(Br)cc3)nc2-c2ccccc2)cc1 | 109.2
COc1ccc(CCNC(=O)CN(C)S(=O)(=O)c2ccc3c(c2)C(C)(C)C(=O)N3C)cc1OC | 103.6
COc1ccc(/C(O)=C2\C(=N)N(c3cc([N+](=O)[O-])ccc3C)C3=C(C(=O)CCC3)C2c2ccc3c(c2)OCO3)cc1 (centres undefined) | 119.9
COc1ccc(C2=N/C(=C\c3cc(OC)c(OC)c(OC)c3)C(=O)O2)c(Br)c1 | 128.0
CCOC(=O)C1=C(C)N=c2s/c(=C/c3ccc(N4CCOCC4)o3)c(=O)n2C1c1ccc2c(c1)OCO2 (centres undefined) | 141.6
CCCCN(C)Cc1nc2nc(C)cc(N3CCC(C)CC3)n2n1 | 114.1
O=c1c2c3c(sc2ncn1Cc1ccccc1F)CCCC3 | 102.0
Cc1ccc(S(=O)(=O)N2CCC(CN3CCCC(C)C3)CC2)cc1F (centres undefined) | 102.2
CCOC(=O)C1C(c2ccc(F)cc2)NC(=S)NC1(O)C(F)(F)F (centres undefined) | 102.1
COc1ccc(-c2cnn3c(SCC(=O)NC4CCS(=O)(=O)C4)cc(C)nc23)cc1OC (centres undefined) | 101.8
Cc1nc2cc(-c3noc(CCC4CCCC4)n3)ccc2o1 | 104.2
CCOc1ccc(N2C(=O)/C(=C\c3cccs3)S(=O)(=O)C2c2cccc([N+](=O)[O-])c2)cc1 (centres undefined) | 110.7
CCSc1nnc(NC(=O)CSc2nnc(CNC(=O)c3cccc([N+](=O)[O-])c3C)n2-c2ccc(F)cc2)s1 | 104.4
COc1ccc(NC(=O)c2sc3nc(C)nc(N4CCC(C)CC4)c3c2C)cc1OC | 114.2
CCc1ccccc1NC(=O)CC1CCN(C(=O)c2cn(-c3ccccc3)nc2-c2ccccc2)CC1 | 104.8
Cc1cc(Cl)ccc1OC(C)C(=O)Nc1sc2c(c1C#N)CCCCCC2 (centres undefined) | 113.6
CC1(c2ccccc2)CC(C)(C)N(C(=O)COc2nc3ccccc3s2)c2ccccc21 (centres undefined) | 97.9
CCc1onc(C)c1C1CCCN1C(=O)C(C)(C)C (centres undefined) | 90.5
Cc1ccc(-c2nc(C)cc(OCC(=O)Nc3c(C)cc(C)cc3C)n2)cc1 | 103.4
CC[N+]12CCCC3CN4C(=O)CCCC4C(CCC1)C32 (centres undefined) | 104.7
COc1cc(C2Nc3ccc(Cl)cc3C(c3ccccc3)O2)cc(OC)c1OC (centres undefined) | 109.8
Cn1c(=O)c2nc(S(=O)(=O)CCC(=O)O)n(Cc3ccc(F)cc3)c2n(C)c1=O | 102.2
COc1ccc(Cl)cc1N1C(=O)CSC1c1ccccc1Br (centres undefined) | 106.2
CCCCCOc1ccc(N2C(=O)C3C4c5ccccc5C(C(=O)O)(c5ccccc54)C3C2=O)cc1 (centres undefined) | 123.1
CC1CCc2oc3ccc(NS(=O)(=O)c4cc(Cl)ccc4Cl)cc3c2C1 (centres undefined) | 109.1
Cc1nc(OCC(=O)N2CCOCC2)c2c(-c3ccc(F)cc3)noc2n1 | 107.3
CC1CCC(C)(C(C)C)C(=O)/C1=C\c1ccc(Br)cc1 (centres undefined) | 103.2
CC(=O)N(c1ccccc1)C1CC(C)N(C(=O)/C=C/c2ccccc2)c2ccccc21 (centres undefined) | 104.7
COc1ccc(NC(=O)c2ccc(N3CC4CC(C3)c3cccc(=O)n3C4)c(NC(=O)/C=C/c3ccccc3)c2)cc1Cl (centres undefined) | 107.0
Cc1nc2cc(C(=O)NCCN3CCOCC3)ccc2n1-c1ccc(OCc2ccccc2)cc1 | 113.3
O=C(CSc1n[nH]c(-c2ccncc2)n1)c1ccc(O)cc1O | 104.4
Cc1ccc(Cl)cc1NC(=O)c1ccc(N2CC3CC(C2)c2cccc(=O)n2C3)c(NC(=O)c2c(F)cccc2F)c1 (centres undefined) | 109.3
CCc1ccccc1NC(=O)CSc1nc2cc(C(=O)NCCOC)ccc2c(=O)n1Cc1ccco1 | 108.6
O=C(Nc1c2c(nn1-c1ccc([N+](=O)[O-])cc1)CSC2)c1cc2ccccc2oc1=O | 106.8
COC(=O)C1=C(C)NC(C)=C(C(=O)OC)C1c1cn(-c2ccccc2)nc1-c1ccc(OC)c(Br)c1 | 107.4
COc1cc2c(cc1OC)C(Nn1cnnc1)=NC1(CCCC1)C2 | 109.3
CC(=O)N1CCCc2cc(S(=O)(=O)NCC3CCCO3)ccc21 (centres undefined) | 103.4
CCOc1nc(NCCN2CCOCC2)nc(Nc2ccc(Cl)cc2)n1 | 113.8
COc1ccc(C2CC(=O)Nc3c2cnn3-c2nc3ccccc3s2)cc1O (centres undefined) | 100.0
CC(C)CNC(=O)c1ccc(Oc2ccnc(-c3ccc(F)cc3)n2)cc1 | 102.0

Retrieved by compound from the list above (2):
SMILES | GIV-Gai inh
COc1ccc(-c2cc(C(F)(F)F)n3nc(C(=O)N4CCCCCC4)cc3n2)cc1OC | 120.1
Cc1cc(Cl)ccc1NC(=O)C1CCCN(C(=O)c2ccccc2F)C1 (centres undefined) | 101.5

Assay outcomes deposited in PubChem by ICCB-Longwood Screening Facility, Harvard Medical School.

The list is partial; the hit share may differ from the screen's.
